# EPAC1 agonist = validation of human EPAC1 agonists. O95398. EPAC1 Rap1b BODIPY-GDP exchange, fluorescence. Potency, µM, for inactives: max response, positive = active, most hits filed as activators. 16,000 compounds, 1% hits. AID 1645883; active = well fitted activation curve with a large enough effect; inconclusive = small, poorly fitted or top-dose-only effect; inactive = no such curve, though single readings can be large or run the other way;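 also: nearly all actives have a fitted effect of over 70% in size; series mostly up to about 76 or 150 µM; scaled to a cAMP control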
# Target sequence (O95398 whole entry, looked up): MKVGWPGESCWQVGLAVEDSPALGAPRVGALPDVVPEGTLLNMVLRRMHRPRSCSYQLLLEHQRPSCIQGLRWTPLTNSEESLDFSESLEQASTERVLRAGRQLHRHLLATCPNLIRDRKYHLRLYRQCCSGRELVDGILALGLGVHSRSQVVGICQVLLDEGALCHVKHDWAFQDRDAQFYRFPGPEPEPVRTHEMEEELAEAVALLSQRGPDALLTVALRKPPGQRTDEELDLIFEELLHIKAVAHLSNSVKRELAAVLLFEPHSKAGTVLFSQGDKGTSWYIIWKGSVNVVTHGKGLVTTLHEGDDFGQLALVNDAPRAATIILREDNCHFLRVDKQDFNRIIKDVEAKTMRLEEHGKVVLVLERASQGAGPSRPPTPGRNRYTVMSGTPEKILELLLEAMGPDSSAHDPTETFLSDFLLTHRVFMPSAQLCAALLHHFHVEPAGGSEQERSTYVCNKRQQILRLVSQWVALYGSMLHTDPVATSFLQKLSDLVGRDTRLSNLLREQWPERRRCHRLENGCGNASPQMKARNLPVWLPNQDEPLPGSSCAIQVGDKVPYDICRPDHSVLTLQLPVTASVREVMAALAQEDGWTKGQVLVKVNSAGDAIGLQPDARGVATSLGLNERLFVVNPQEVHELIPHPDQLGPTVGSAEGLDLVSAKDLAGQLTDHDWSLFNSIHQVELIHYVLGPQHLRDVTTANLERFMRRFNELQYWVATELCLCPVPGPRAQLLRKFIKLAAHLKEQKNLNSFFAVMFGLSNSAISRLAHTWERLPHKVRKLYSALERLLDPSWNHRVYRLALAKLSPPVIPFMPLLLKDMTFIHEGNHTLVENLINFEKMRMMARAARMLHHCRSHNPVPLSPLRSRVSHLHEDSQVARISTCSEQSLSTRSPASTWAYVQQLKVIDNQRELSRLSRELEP
# An asterisk follows results filed as active; ? = inconclusive; & = joins results of further samples; [ ] = another dose, or the depositor's remark. % is scaled to controls: 0 for no effect and ±100 for the full control effect; potency is read from the fitted curve at half-maximal effect. Some of the compounds tested, so the mix of outcomes need not match the whole.
EPAC1 agonist | SMILES
20.4%&-13.5%&-24.3%&-28.2%&-26.3% | CC1=NS(=O)(=O)c2cc(Cl)ccc2N1
8.1% | O=C(CS)Nc1ccccc1
-3.8% | Cc1cnc(CNc2ncnc3ccc(-c4ccccc4C(F)(F)F)cc23)cn1
-96.3%[inhibitor] | CCC(/C=C/C(C)C1CCC2C3CC=C4CC(O)CC[C@@]4(C)C3CC[C@@]12C)C(C)C (stereo not given in full)
-27.4% | COc1ccc2c(c1)OC(C)CN(CCNC(=O)c1ccc(-n3cccn3)cc1)C2 (stereo not given)
4.0%&2.5% | CC(/C=C/c1cccc(Oc2ccc(F)cc2)c1)N(O)C(N)=O (stereo not given)
-27.3% | COc1ccc(C(=O)N2CCC3(CCN(Cc4ccc(C#N)cc4)CC3)CC2)cc1
-19.0% | CCC(=O)Oc1ccc2c(c1)CC[C@@H]1[C@@H]2CC[C@]2(C)[C@@H](OC(=O)CC)CC[C@@H]12
-11.2% | O=P(O)(O)OC[C@H](O)CO
112µM* | Cc1cc(N(C)C)c(C)cc1/C=C/c1ccnc2ccccc12
-26.0% | O=C(c1cnccn1)N1CCC2(CC1)CCN(c1cccc(-c3ccccc3)c1)CC2
-25.4% | COC(=O)[C@@H]1CCCN1C(=O)c1cnn(-c2nccc(-c3cc(C)sc3C)n2)c1C1CC1
-1.3% | NC(=O)[C@@H]1CSSCCC(=O)N[C@@H](CCCCN=C(N)N)C(=O)NCC(=O)N[C@@H](CC(=O)O)C(=O)N[C@@H](Cc2c[nH]c3ccccc23)C(=O)N2CCC[C@H]2C(=O)N1
? | O=C(CCCCCCC(=O)Nc1ccccc1)NO
25.3% | CC(=O)NCCNc1nc(-c2ccc(N(C)C)cc2)nc2ccccc12
-7.4% | O=C1C(c2[nH]c3ccccc3c2O)=Nc2ccccc21
? | O=c1c(-c2cccs2)nc2cnc(Nc3ccccc3)nc2n1C[C@H]1CCCO1
-59.0%[inhibitor] | CN1CCCC2(CCN(C(=O)c3cc(C(F)(F)F)cc(C(F)(F)F)c3)CC2)C1
16.5% | O=c1c(-c2ccccc2)nc2cnc(Oc3cccc(Cl)c3)nc2n1C1CC1
7.7% | CC(=O)OC1CC(OC(C)=O)[C@]2(C)C(CC(O)[C@]3(C)C2CC[C@@]2(C)C(c4ccoc4)OC(=O)C4O[C@]432)C1(C)C (stereo not given in full)
16.1% | O=S1(=O)CCOCCCN1Cc1cccc(C(F)(F)F)c1
? | Cc1cnc(CNc2cc(-c3ccoc3)ncn2)cn1
5.9% | COc1ccccc1C(=O)N[C@@H]1c2ccccc2C2(CCN(Cc3cccnc3)CC2)[C@H]1O
-36.3%[inhibitor] | CC(C)c1cc2c(cc1S(=O)(=O)O)[C@@]1(C)CCC[C@@](C)(C(=O)O)[C@@H]1CC2
-36.5%[inhibitor] | COc1cccc(-c2nc(NC3CCNCC3)c3ccccc3n2)c1
-5.5%&1.8% | C=C(CC)C(=O)c1ccc(OCC(=O)O)c(Cl)c1Cl
-86.0%[inhibitor] | CS(=O)(=O)N1CCC2(CC1)CN(Cc1cc(C(F)(F)F)cc(C(F)(F)F)c1)C2
-17.4% | CC1(C)S[C@@H]2[C@H](NC(=O)COc3ccccc3)C(=O)N2C1C(=O)OCC1CCCCC1 (stereo not given in full)
? | O=S1(=O)CCOC[C@H](c2ccccc2)N1Cc1ccc(Cl)c(Cl)c1
-10.4% | Cc1cnc(-n2ncc(C(=O)N(C)Cc3cccc4ncccc34)c2C(C)C)nc1-c1ccc(F)cc1
? | CC(Cc1ccc(O)c(O)c1)(NN)C(=O)O (stereo not given)
-6.1% | COC(=O)[C@@H]1CCCN1C(=O)c1c(OC)cc(=O)n2c1CCN(Cc1ccc3cccnc3c1)CC2
-18.9% | COc1cccc(Cn2c(=O)c(-c3cc(F)cc(F)c3)nc3cnc(N(C)C)nc32)c1
-2.3% | S=C(S)O[C@@H]1C[C@@H]2C[C@H]1[C@@H]1CCC[C@H]21
-7.7% | COCCNc1ncnc2ccc(-c3cccc(NS(C)(=O)=O)c3)cc12
? | CCCCCc1ccc(-c2cn(Cc3cccc(OC)c3)nn2)cc1
4.1% | CC(=O)Nc1ccc(NC(=S)NC(=O)c2ccc(C(C)(C)C)cc2)cc1
10.8% | NC[C@H]1O[C@@H](n2cnc3c(N)ncnc32)[C@H](O)[C@@H]1O
? | N#Cc1cccc(-c2nc3cnc(N4CCNCC4)nc3n(C3CC3)c2=O)c1
-30.2%[inhibitor] | COCC(=O)Nc1c(I)c(C(=O)NCC(O)CO)c(I)c(C(=O)N(C)CC(O)CO)c1I (stereo not given)
? | CN(C)c1ncc2nc(-c3ccccc3)c(=O)n(Cc3cccs3)c2n1
14.7% | CCOC(=O)C1=C(C)NC(C)=C(C(=O)OC)[C@H]1c1cccc([N+](=O)[O-])c1
-43.1% | O=S1(=O)CCO[C@H]2Cc3ccccc3[C@H]2N1Cc1ccc(F)cc1
-10.9% | CC1(C)CCC[C@]2(C)C3CC(=O)O[C@@]3(C)CC[C@H]12 (stereo not given in full)
-9.9% | O=C(NCCN1Cc2ccccc2OC(c2ccsc2)C1)c1cncs1 (stereo not given)
-16.2% | Cn1c(=O)cnc2cnc(OCc3ccccc3)nc21
-22.4% | CC(=O)OCC(=O)[C@@]1(OC(C)=O)[C@@H](C)C[C@H]2[C@@H]3C[C@H](F)C4=CC(=O)C=C[C@]4(C)[C@@]3(F)[C@@H](O)C[C@@]21C
-6.0% | CC#CCOC(=O)c1c(C)nc2sc3c(c2c1N)CCC(O)C3 (stereo not given)
12.7% | CNc1nc(-c2cccnc2)nc2ccccc12
-63.2%[inhibitor] | CS(=O)(=O)Nc1cccc(-c2nccc(NCc3ccccc3)n2)c1
-26.3% | C[C@]12C=CC(=O)N[C@@H]1CC[C@@H]1[C@@H]2CC[C@]2(C)[C@@H](C(=O)Nc3cc(C(F)(F)F)ccc3C(F)(F)F)CC[C@@H]12
-22.0% | Cc1nn(C)c(Cl)c1CN1CCOc2ccc(CN3CCC(Oc4cccnc4)CC3)cc2C1
18.1% | COc1ccc(C2NC(=S)N3C(c4ccc(OC)c(OC)c4)NC(=S)N23)cc1OC (stereo not given)
-3.8% | COc1ccc(C(=O)NCc2cccnc2)cc1C(=O)NCc1cccnc1
29.4% | Cc1ncc(Cc2ccccc2)c(C2CCN(S(=O)(=O)C[C@]34CC[C@H](CC3=O)C4(C)C)CC2)n1
-2.9% | COc1ccc(-c2ccnc(-n3ncc(C(=O)NC(C)(C)CO)c3C3CC3)n2)cc1F

# Additional structures.
EPAC1 agonist | SMILES
2.0% | CCC1CN(CCNC(=O)c2cccnc2C)Cc2cc(OC)ccc2O1 (stereo not given)
3.5% | O=C(CNC(=O)c1cccnc1)c1ccc(F)cc1
1.0% | Cc1cc(C(=O)Nc2cccc(-c3nc(CNC(=O)c4cnccn4)c(C)o3)c2)c(C)o1
-19.6% | COc1ccc(CN2CCC(=O)N([C@H](CO)CC(C)C)CC2)cc1
-5.0% | Cc1nc(NCc2cccc3c2OCO3)sc1-c1ccn(CC2CCCN(C)C2)n1 (stereo not given)
? | COc1cccc(Cn2c(=O)c(-c3ccc(Cl)cc3)nc3cnc(N4CCNCC4)nc32)c1
-4.6% | OC[C@]1(O)OC[C@@H](O)[C@H](O)[C@@H]1O
-20.0% | CCC1(C2CCN(C(=O)c3ccc(C)c(C)c3)CC2)NC(=O)N(CCc2scnc2C)C1=O (stereo not given)
-12.9% | CC(=O)NCCNc1nc(-c2ccc3c(c2)OCO3)nc2ccccc12
23.5% | Cc1cc(C(=O)NCC2CCC3(CCN(Cc4ccc5ccccc5c4)CC3)O2)n(C)n1 (stereo not given)
-6.3%&7.9% | Cc1nc2c(OCc3ccccc3)cccn2c1CC#N
-5.3% | COc1cc(/C=C/C(=O)c2cccs2)cc(OC)c1OC
15.2% | COc1ccc(CN2CCOc3c(cc(-c4ccc(OC)nn4)cc3OC)C2)c(O)c1
-19.1% | CC(C)c1c(C(=O)N(C)Cc2cccc3ncccc23)cnn1-c1nccc(-c2ccco2)n1
3.7% | COc1ccc(-c2nc3cnc(N(C)C)nc3n(CCc3ccccc3)c2=O)cc1
-2.3% | O=c1c(-c2ccccc2)nc2cnc(Oc3ccccc3)nc2n1C[C@H]1CCCO1
-16.7% | CC(C)N=C(N)/N=C(\N)Nc1ccc(Cl)cc1
-7.1% | O=c1cc(-c2ccccc2)[nH]c2nc(Cl)ccc12
-3.6% | CCCCC/C=C\C=C\[C@H](O)CCCCCCCC(=O)O
-24.2%&-27.5% | Cc1cc(O)cc(C)c1Cl
4.7% | Cc1nc2sccn2c1CN1CCC2(CC1)CC2C(=O)Nc1ccc2c(c1)OCO2 (stereo not given)
14.1% | CC(C)C[C@H]1C(=O)N2CCC[C@@H]2[C@]2(O)O[C@](NC(=O)[C@@H]3C=C4c5cccc6[nH]c(Br)c(c56)C[C@H]4N(C)C3)(C(C)C)C(=O)N12
112µM* | O=c1c(-c2ccccc2)nc2cnc(Nc3ccccc3)nc2n1Cc1cccs1
? | N#CCCn1c(=O)c(-c2cc(F)cc(F)c2)nc2cnc(N3CCOCC3)nc21

# Ordered by length of the SMILES (smallest number first): part of the list above.
EPAC1 agonist | SMILES
16.1% | O=S1(=O)CCOCCCN1Cc1cccc(C(F)(F)F)c1
-5.0% | Cc1nc(NCc2cccc3c2OCO3)sc1-c1ccn(CC2CCCN(C)C2)n1 (stereo not given)
7.7% | CC(=O)OC1CC(OC(C)=O)[C@]2(C)C(CC(O)[C@]3(C)C2CC[C@@]2(C)C(c4ccoc4)OC(=O)C4O[C@]432)C1(C)C (stereo not given in full)

# (continued)
EPAC1 agonist | SMILES
-12.5% | COc1ccc(C(=O)N2CCC[C@@]3(CCN(c4cccc(-c5ccccc5)c4)C3)C2)cc1
-1.6% | CC#C[C@]1(O)CC[C@H]2[C@@H]3CCC4=CC(=O)CCC4=C3[C@H](c3ccc(N(C)C)cc3)C[C@@]21C
0.8% | CCC(C(=O)NC(N)=O)c1ccccc1 (stereo not given)
15.1% | Cc1ccc2c(c1)cc(CN(C)Cc1nc(C)cs1)c(=O)n2C
? | CN(C)Cc1ccccc1-c1cc(NC2CC2)ncn1
3.1% | CC(=O)OC1CC[C@@]2(C)C(CC[C@@]3(C)C2CC=C2C4CC(C)(C)CC[C@]4(C(=O)O)CC[C@@]23C)C1(C)C (stereo not given in full)
20.4% | CCCN(CC)C(CC)C(=O)Nc1c(C)cccc1C (stereo not given)
-39.9%[inhibitor] | COCCn1c(=O)c(CCc2ccccc2)nc2cnc(N3CCN(C)CC3)nc21
-6.4% | CCN1CCCC1CNC(=O)c1cnn(-c2nccc(-c3ccco3)n2)c1C1CC1 (stereo not given)
-2.7% | O=C(Nc1cccc(F)c1)N1CCCC2(CCN(C(=O)c3ccncc3)CC2)C1
-10.0% | COc1ccc(-c2nc3cnc(Nc4ccccc4)nc3n(Cc3cccs3)c2=O)cc1
-51.0%[inhibitor] | CCNc1ncc2nc(-c3cc(F)cc(F)c3)c(=O)n(Cc3cccs3)c2n1
? | CC(C)NCC(O)c1cc(O)cc(O)c1 (stereo not given)
-9.9% | NCC(O)(CS(=O)(=O)O)c1ccc(Cl)cc1 (stereo not given)
-0.6% | O=C1c2ccccc2C(=O)c2c(NCCc3ccc(O)cc3)ccc(NCCc3ccc(O)cc3)c21
-6.2%&-7.2% | CCCCNc1c(C(=O)OCC)c(C)nc2c1cnn2CC
-77.1%[inhibitor] | CC(=O)N1CCC[C@@]2(CCN(c3ccccc3)C2)C1
6.3%&-13.2% | CCc1cccc(N(C)C(N)=Nc2cccc3ccccc23)c1
4.3% | O=C(CCCCCN1CCN(c2ccccc2-c2ccccc2)CC1)NC1CCCc2ccccc21 (stereo not given)
-0.5%&-22.7%&-2.4%&2.0% | CN/C(=C\[N+](=O)[O-])NCCSCc1ccc(CN(C)C)o1
13.0% | Cc1cccc(C)c1N(CCCc1cccnc1)C(=O)C(C)N (stereo not given)
-33.9%[inhibitor] | C[C@H]1[C@H](C)CC[C@]2(C(=O)O)CC[C@]3(C)C(=CCC4[C@@]5(C)CC[C@H](O)C(C)(C)[C@@H]5CC[C@]43C)[C@H]12 (stereo not given in full)
-19.4% | N#CC[C@H](Cc1ccccc1)N1CCN(Cc2ccccc2)CCC1=O
126µM* | COCC(=O)N1CCC2(CC1)CCN(C(=O)Nc1cccc(C#N)c1)CC2

# 5 consecutive compounds already listed, for reference:
EPAC1 agonist | SMILES
-0.5%&-22.7%&-2.4%&2.0% | CN/C(=C\[N+](=O)[O-])NCCSCc1ccc(CN(C)C)o1
13.0% | Cc1cccc(C)c1N(CCCc1cccnc1)C(=O)C(C)N (stereo not given)
-33.9%[inhibitor] | C[C@H]1[C@H](C)CC[C@]2(C(=O)O)CC[C@]3(C)C(=CCC4[C@@]5(C)CC[C@H](O)C(C)(C)[C@@H]5CC[C@]43C)[C@H]12 (stereo not given in full)
-19.4% | N#CC[C@H](Cc1ccccc1)N1CCN(Cc2ccccc2)CCC1=O
126µM* | COCC(=O)N1CCC2(CC1)CCN(C(=O)Nc1cccc(C#N)c1)CC2

# More records:
EPAC1 agonist | SMILES
-24.2% | Cc1cnc(CNc2ccnc(-c3cccnc3)n2)cn1
-43.7%[inhibitor] | Cc1noc(C)c1C(=O)N1CCC2(CCN(C(=O)Nc3ccccc3)CC2)CC1
-4.6% | O=C1CC[C@@H](C(=O)NCC2Cc3cc(Cl)cc(-c4ccc5[nH]ccc5c4)c3O2)N1 (stereo not given in full)
0.7% | Cc1cccc(C(=O)N2CCOc3ccc(CN(C)Cc4cc(C5CC5)n[nH]4)cc3C2)n1
-7.4% | OC(c1ccc2c(c1)CN(Cc1cccn1-c1cccnc1)CCO2)C1CCCCC1 (stereo not given)
-22.8% | C[C@@H](CSc1ccc(Br)cc1)CN1CC[C@H](C(C)(C)C)CCC1=O
-1.9%&20.8%&-29.0%&-11.4%&-10.6% | CN1CCN(CCCN2c3ccccc3Sc3ccc(C(F)(F)F)cc32)CC1
-20.0% | CC(C)[C@H](NC(=O)[C@H](CC(=O)O)NC(=O)[C@H](CCCCN)NC(=O)[C@@H](N)CCCN=C(N)N)C(=O)N[C@@H](Cc1ccc(O)cc1)C(=O)O
-9.8% | CC(=O)[C@@]1(O)[C@H](O)CC2C3CCC4CC(O)CC[C@]4(C)C3CC[C@@]21C (stereo not given in full)
-6.8% | O=C(C[n+]1ccncc1)c1ccc(Br)cc1
-27.4% | COc1ccccc1-c1nccc(-n2ccnc2)n1
